High-throughput results (PubChem)
CtBP-E1A blk: qHTS Assay for Inhibitors of the CtBP/E1A Interaction; CtBP / adenovirus E1A interaction (AlphaScreen); AlphaScreen GST-E1A/His-CtBP binding, 1536-well; active compounds read low; control for the full effect not named in the record; activity change, % (concentration not given with the values); hit rate 0.49% among 340,000; in the data active means activity change below about -65%; inconclusive means about -30% to -65%; inactive means above about -30%; further: on the % scale 0 is the no-effect control and ±100 the full control effect
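AlphaScreen with 125 nM GST-E1A and 125 nM His-CtBP (5X stocks) in Tris pH 8.0, 300 mM NaCl, BSA, Tween 20, TCEP. Compounds preincubated 2 h at 37 deg C, then glutathione donor/nickel acceptor beads added for 1 h at 37 deg C in dark.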
Six1-Eya2 inh: qHTS Assay for Inhibitors of the Six1/Eya2 Interaction | Homeobox protein SIX1 (Homo sapiens) + Protein phosphatase EYA2 (Homo sapiens), … | AlphaScreen GST-Six1/His-Eya2 binding, biochemical; active compounds read low; control for the full effect not named in the record | activity change, % (test concentration not listed) | hit rate 0.56% among 360,000; in the data active = activity change below about -65%; inconclusive = about -30% to -65%; inactive = above about -30%; further: on the % scale 0 is the no-effect control and ±100 the full control effect
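Six1/Eya2 binding was read as AlphaScreen signal after compounds were pinned into GST-Six1 plus His-tagged Eya2 (5X stock 250/500 nM) in pH 8.0 Tris/NaCl/TCEP buffer, beads added, then incubated 1 h, 37 C, dark.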
PINK1 expr mod: A Quantitative High throughput Screen to Identify Chemical Modulators of PINK1 Expression. hit rate 0.2% among 410,000. PINK1 immunofluorescence, high-content cytometry, 24 h. Potency, µM (highest dose often 76.6 µM), without a hit: at the top dose activation (PINK1 increase), usual class: activators. AID 624263, 2012; active = well fitted activation curve with a large enough effect; inconclusive = small, poorly fitted or top-dose-only effect; inactive = flat fitted curve, though single readings scatter; cell line not stated here;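 further: potency means the concentration at half of the fitted maximal effect; % of control where 0% means no effect; nearly all actives have a fitted effect of over 65% in size; a mitochondrial uncoupler was the plate control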
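Stable cell line treated 24 h with compounds at 5 concentrations (CCCP controls), then fixed and immunostained for PINK1 plus nuclear and cell stains; PINK1 immunofluorescence quantified by laser-scanning microplate cytometry.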
D2 ag: Beta-Arrestin HTS for Positive Allosteric Modulators of the Human D2 Dopamine Receptor: Agonists | D(2) dopamine receptor (Homo sapiens), P14416 | DiscoveRx PathHunter D2 beta-arrestin, luminescence, 90 min; 100% = 57 uM dopamine signal | activation, % (concentration not given with the values) | hit rate 0.084% among 360,000 | AID 624465, 2012; in the data active = activation above about 40%; inconclusive = about 15% to 40%; inactive = below about 15%; further: compound concentration not given in the record; the text of the record calls up to 30% inactive
Target sequence (P14416 whole entry, looked up): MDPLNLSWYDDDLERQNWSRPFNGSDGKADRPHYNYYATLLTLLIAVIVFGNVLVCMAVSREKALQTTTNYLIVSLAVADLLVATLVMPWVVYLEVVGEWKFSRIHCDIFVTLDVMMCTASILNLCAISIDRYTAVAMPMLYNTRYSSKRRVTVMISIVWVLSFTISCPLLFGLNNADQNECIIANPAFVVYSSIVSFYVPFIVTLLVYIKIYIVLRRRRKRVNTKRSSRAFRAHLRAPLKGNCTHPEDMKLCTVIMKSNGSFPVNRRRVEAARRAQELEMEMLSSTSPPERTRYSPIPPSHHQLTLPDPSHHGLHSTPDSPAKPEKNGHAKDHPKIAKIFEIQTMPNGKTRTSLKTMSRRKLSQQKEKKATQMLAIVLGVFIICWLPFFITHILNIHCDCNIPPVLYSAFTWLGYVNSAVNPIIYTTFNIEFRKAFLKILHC
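Agonist mode: compounds alone added to overnight-plated D2 PathHunter cells for 90 min at 37 C, with 57 uM final dopamine (EC100) defining full response. Beta-arrestin recruitment detected by chemiluminescent reagent, read after 1 h at ambient temperature.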
TRPML1 inh: qHTS for Inhibitors of the Human Mucolipin Transient Receptor Potential 1 (TRPML1); Mucolipin-1 (Homo sapiens), Q9GZU1; TRPML1-inducible cells, Ca2+ dye fluorescence, FDSS; active compounds read low; inhibition of EC80 agonist-evoked calcium signal; activity change, negative = inhibition, % (no concentration beside the values); hit rate 0.02% among 390,000; AID 624415, 2012; in the data active means activity change below about -50%; inconclusive means about -30% to -50%; inactive means above about -30%;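 further: stimulus is agonist 54-4 at its EC80 concentration; on the % scale 0 is the no-effect control and ±100 the full control effect; compound concentration not given in the record; the text of the record puts the active cut at -80%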
Target sequence (Q9GZU1 whole entry, looked up): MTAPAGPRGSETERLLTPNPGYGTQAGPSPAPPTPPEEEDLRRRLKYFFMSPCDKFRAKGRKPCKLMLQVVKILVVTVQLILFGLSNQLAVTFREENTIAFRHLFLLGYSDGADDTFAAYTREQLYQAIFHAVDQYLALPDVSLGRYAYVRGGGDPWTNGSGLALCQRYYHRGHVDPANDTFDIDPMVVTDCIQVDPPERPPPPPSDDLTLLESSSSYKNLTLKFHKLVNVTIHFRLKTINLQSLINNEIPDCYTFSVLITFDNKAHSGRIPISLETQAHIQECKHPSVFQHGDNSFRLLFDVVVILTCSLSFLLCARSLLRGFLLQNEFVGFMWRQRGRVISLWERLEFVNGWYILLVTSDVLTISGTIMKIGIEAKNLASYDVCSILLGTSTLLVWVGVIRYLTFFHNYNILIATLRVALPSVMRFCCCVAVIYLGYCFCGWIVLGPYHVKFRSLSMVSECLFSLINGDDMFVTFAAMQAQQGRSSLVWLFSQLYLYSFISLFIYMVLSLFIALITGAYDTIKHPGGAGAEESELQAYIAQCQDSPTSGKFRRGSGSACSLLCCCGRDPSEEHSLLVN
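TRPML1-DL cells, Tet-induced overnight (~16 h, 37 °C) at 1,500 cells/well, were loaded with Ca8 no-wash dye plus quencher for 45-90 min at room temperature. Compounds were pinned during FDSS kinetic reading; agonist 54-4 at EC80 (4 uM final) then added.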
TRPML1 ag: qHTS for Agonists of the Human Mucolipin Transient Receptor Potential 1 (TRPML1); AID 624414, 2012; TRPML1-expressing cells, Ca2+ dye fluorescence, FDSS; host cell line not named in the record; reference of the full effect not given here; hit rate 0.12% among 410,000; activation, % (no concentration beside the values); in the data active = activation above about 50%; inconclusive = about 30% to 50%; inactive = below about 30%; further: 0% is about no effect; the text of the record puts the active cut at 80%
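Agonist activity was taken from a 110 s kinetic Ca2+ dye read on the FDSS after pinning compounds onto TRPML1-DL cells. The cells were seeded at 1,500/well with Tet inducer, incubated about 16 h, then dye-loaded at room temperature.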
* marks the source's active call; other numbers are inactive results; ? = inconclusive; . = no result given; [ ] = dose if it differs, or a comment.

Compound	Six1-Eya2 inh	D2 ag	CtBP-E1A blk	TRPML1 inh	TRPML1 ag	PINK1 expr mod
Cc1ccc(CN(Cc2ccco2)S(=O)(=O)c2ccc(S(=O)(=O)NCC3CCCO3)cc2)cc1 (stereo not given)	0	1.0	-9	4	1.6	16%
Cc1c(NS(=O)(=O)c2cc(C(=O)Nc3ccc(F)cc3Cl)ccc2Cl)c(=O)n(-c2ccccc2)n1C	3	-2.4	6	3	-0.8	0.2%
CN(CCC1CCOCC1)C(=O)CC1C(=O)NCCN1Cc1c(F)cccc1Cl (stereo not given)	1	-4.4	-1	8	0.2	0.6%
Cc1ccc(CNC(=O)Cc2ccc(-c3ccccc3)cc2)cc1	8	2.1	2	-10	-0.3	8.1%[38.3 µM]
CC1CCN(C(=O)CC2C(=O)Nc3c2c(=O)n(C)c(=O)n3Cc2ccccc2)CC1 (stereo not given)	3	0.6	3	5	0.0	-3.6%[38.3 µM]
Cc1ccc2nc(SCC(=O)Nc3cc(C)on3)nc(=O)n2c1	6	1.4	5	-10	-0.3	3.4%
COc1ccccc1Oc1nc2c(C)cccn2c(=O)c1/C=C(\C#N)c1nc2ccccc2[nH]1	.	.	.	-1	-0.4	25µM*
Cc1ccc(NC(=O)NC(=O)CSc2nnc(-c3ccc(Cl)cc3Cl)n2N)c(C)c1	3	-4.0	6	-4	-0.5	1.9%
O=C(Nc1ccn(Cc2ccccc2)n1)c1ccc(F)cc1	-1	0.6	8	56	0.9	0.3%
Cc1ccccc1N(C(=O)CNC(=O)c1ccco1)C(C(=O)NC1CCCCC1)c1ccncc1 (stereo not given)	6	0.8	-2	-2	0.9	0.7%
CC(=O)Nc1ccc(NC(=O)c2c(-c3ccccc3Cl)noc2C)c(C)c1	6	1.9	-1	18	0.0	-1.6%
CCCC(=O)Nc1nnc(S(=O)(=O)N(C)Cc2ccco2)s1	-6	-3.8	1	-12	-0.5	0.9%
O=C(Nc1cc(Cl)ccc1Cl)N1CCN(C(=O)Nc2cc(Cl)ccc2Cl)CC1	0	-4.7	6	-1	5.1	1.4%
COc1ccc(NC(=O)Cn2c(=O)n(-c3cc(C)cc(C)c3)c(=O)c3oc4ccccc4c32)cc1OC	.	.	.	-6	-0.4	0.2%
COC(=O)c1sc(S(=O)(=O)Nc2ccc3cn[nH]c3c2)c(C(=O)OC)c1C	-2	-1.7	-2	4	-0.5	-0.9%
CC(=O)OCc1cnc(C)c2oc(=O)c(C(=O)Nc3cc(F)ccc3C)cc12	.	.	.	58	-0.9	-0.3%
CCc1cc2c(SCC(=O)Nc3cc(C)on3)ncnc2s1	0	-4.6	0	-9	-0.6	1.5%
CCCCn1nc(C(=O)N2CCN(S(=O)(=O)c3ccccc3)CC2)c2ccccc2c1=O	2	-2.0	-5	14	-0.3	0.3%
O=C(Nc1ccccc1Cl)c1ccccc1Oc1ccc(C(F)(F)F)cc1[N+](=O)[O-]	-22	-4.6	-2	-21	55*	1.9%
Nc1ncnc2c1ncn2CCc1ccccc1	15	8.2	7	-10	0.4	-2.5%
Cc1ccc(C)c(N(CC(=O)NC(C)C)C(=O)CCC(=O)Nc2ccccn2)c1	-12	2.9	-2	2	0.6	-0.8%
OC[C@H]1O[C@@H](c2nc(-c3cccc4ccccc34)no2)[C@H](O)[C@@H]1O	5	-3.7	1	10	0.3	-0.9%
CCCCN(CC)S(=O)(=O)N1CCC(C(=O)NCc2ccc(F)cc2)CC1	6	-1.8	1	15	0.5	.
CN1CCN(C2CN(C3CCCCC3)S(=O)(=O)C2)CC1 (stereo not given)	1	-3.2	0	.	-0.7	-0.1%
COc1ccc(C(Nc2cccc([N+](=O)[O-])c2)P(=O)(OC(C)C)OC(C)C)cc1 (stereo not given)	1	-5.6	6	12	3.8	0.9%
Nc1cnc(-c2ccccc2)nc1Cl	-1	-1.7	-2	12	-0.7	0.0%
O=C(c1ccccc1)N1CCN(C(=O)c2ccccc2)C1c1ccccc1	-6	-1.3	2	-4	-0.4	0.5%
Cc1ccc(OCCN2CCCC2)cc1	10	-1.7	4	-5	0.2	1.2%
O=C(N/N=C/c1cccc(OC2CSC2)c1)c1ccccc1O	3	-5.3	-7	-1	0.6	7.4%
Cc1cc2cc(C(c3nnnn3Cc3ccco3)N3CCc4ccccc43)c(=O)[nH]c2cc1C (stereo not given)	-17	-2.6	-21	-1	-0.9	-1.3%
CC(CNC(=O)c1cnn(-c2ccc(F)cc2)c1-n1cccc1)c1ccccc1 (stereo not given)	.	.	.	10	11	-0.5%
COc1cc(/C=C/CN2CCC(C(=O)NC(c3ccc(F)cc3)c3ccc4ccccc4n3)CC2)ccc1OC(C)=O (stereo not given)	?	-8.6	?	.	12	-0.9%
COc1cc(C(=O)NC(=S)Nc2ccc3c(c2)OCO3)cc(OC)c1OC	11	-4.3	1	-13	0.7	7.1%
O=C(OCCCOC(=O)c1ccc([N+](=O)[O-])o1)c1ccc([N+](=O)[O-])o1	4	11	0	-12	0.1	-1.0%
CC1=CN2C(c3cccc([N+](=O)[O-])c3)=NON(c3ccc(C)cn3)C2C=C1 (stereo not given)	7	?	1	.	-0.7	2.0%
Cc1ccc(/C=N/NC(=O)Cn2nc(C)c([N+](=O)[O-])c2C)o1	3	-0.2	13	-2	-0.3	1.8%
CC(=O)Nc1ccc(/C=N/NC(=O)c2cccs2)cc1	-2	2.4	2	8	0.8	-0.8%
COc1ccc(CCn2c(C)cc(C(=O)CCl)c2C)cc1OC	11	0.2	-11	4	0.3	-0.6%
CC(=O)c1sc2c(c1OC(=O)c1ccccc1)c(=O)n(-c1ccccc1)c(=S)n2-c1ccccc1	-4	-3.5	-1	-18	0.4	3.7%
COc1ccc(-n2nc(C(=O)NCC(=O)NCCCN3CC(C)CC(C)C3)c3ccccc3c2=O)cc1 (stereo not given)	-2	-2.2	-8	-21	-0.3	-0.7%
O=C(Nc1ncccc1Cl)c1cccc(F)c1	6	-3.0	4	20	-0.8	2.5%[38.3 µM]
O=C1C2=C(SCCS2)C(=O)N1c1ccccc1	4	-3.5	0	37	2.2	-5.1%[38.3 µM]
CC(C)c1nc(-c2c(N)n(C)c(=O)n(C)c2=O)sc1C(=O)C(C)(C)C	5	2.6	4	-18	2.2	18%
CCCc1c(C)nc(N2CCN(c3ccccc3OC)CC2)[nH]c1=O	8	-0.8	6	-24	-0.6	11%
CCCCCOC(=O)C1C(c2ccccc2)C(C(=O)O)C1c1ccccc1 (stereo not given)	-2	-4.2	-4	4	0.2	2.9%
Cc1ccccc1NC(=O)N1CCCC(c2nc(-c3ccc(F)cc3)no2)C1 (stereo not given)	-3	-1.1	-1	-8	0.5	5.4%[38.3 µM]
CCOc1ccccc1CNc1nnnn1C	-25	4.8	-18	3	-0.1	0.9%
Cc1c(NC(=O)Nc2ccc(Cl)c(C(F)(F)F)c2)c(=O)n(-c2ccccc2)n1C	.	.	.	8	-1.0	0.7%
Cc1cc(C)nc(NNS(=O)(=O)c2c(C)cc(C(C)(C)C)cc2C)n1	-6	-5.0	-10	25	1.2	5.1%
COCc1nc2ccccc2n1CCOc1cccc(C)c1	.	.	.	15	1.1	1.9%
CCOC(=O)c1nc(SC)n(C)c1C(=O)OCC	-7	-2.1	2	-14	0.0	0.6%
CC(C)=C1C2CCC1C(C(=O)NCCc1ccccc1)C2C(=O)O (stereo not given)	-3	0.6	-11	3	0.1	6.2%
Cc1nc(N2CCN(c3ccccc3)CC2)[nH]c(=O)c1Cc1ccccc1	2	0.7	4	10	0.3	6.5%
C=CCC[C@@H](Cc1ccc(F)cc1)C(=O)OC[C@@H](Cc1c[nH]c2ccccc12)NC(=O)[C@@H](CC=C)CC(=O)N[C@@H](CO)Cc1ccccc1	-10	0.8	-1	2	-0.5	4.3%
CN1C(=O)CC(N2CCN(c3ncccn3)CC2)C1=O (stereo not given)	2	-1.0	2	6	-0.6	2.1%[38.3 µM]
COc1ccc(N2C(=O)C3[C@@H](C2=O)C2(Cl)C(Cl)=C(Cl)C3(Cl)C2(OC)OC)cc1 (stereo not given in full)	9	-1.1	8	38	0.4	-1.8%
CCCNC(=O)c1cc(C2CCCN(C(=O)C3CCCCC3)C2)on1 (stereo not given)	0	-4.4	6	.	-0.9	1.5%
COc1ccccc1CC(=O)NNC(=O)CN(C)S(=O)(=O)c1ccc(Cl)cc1	4	-2.6	2	-6	-0.4	-0.3%
COC(=O)c1[nH]c2cccc(OC)c2c1NC(=O)CN1CCC(C(N)=O)(N2CCCCC2)CC1	0	-3.0	9	14	-0.5	14%[38.3 µM]
COc1ccc(OCCSc2nnc(-c3ccc(OC)cc3)n2N)cc1	-4	1.9	-1	-3	-1.3	-2.5%

(more compounds)
Compound	Six1-Eya2 inh	D2 ag	CtBP-E1A blk	TRPML1 inh	TRPML1 ag	PINK1 expr mod
COC(=O)C1=C(O)/C(=C\c2ccc(O)c(OC)c2)N=C1C	-3	0.5	5	10	1.1	4.6%[38.3 µM]
C/C(=N\NC(=O)c1ccn[nH]1)c1cn(C)nc1C	-9	1.3	0	10	0.5	-0.8%
CCCCn1c(CN2CCOCC2)nc2c1c(=O)n(C)c(=O)n2C	-2	-2.4	-5	10	0.1	2.9%
COc1ccc(CNC(=O)C2(CC3CC(c4ccccc4)=NO3)CCN(C(=O)c3cccc(O)c3)CC2)cc1 (stereo not given)	-10	1.4	-8	63	1.4	-0.8%
CC1=C(C(=O)Nc2ccc(C)cc2C)C(c2ccccc2F)n2nc(SCC(=O)c3ccc(C)cc3)nc2N1 (stereo not given)	.	.	.	-4	-0.4	2.9%
CCOC(=O)C1=C(COC(=O)COc2ccc(C#N)cc2)NC(=O)NC1C (stereo not given)	-4	-2.4	6	3	-0.2	0.1%
COc1ccc(N(CC(=O)Nc2cc(OC)c(OC)cc2C(=O)O)S(=O)(=O)c2c(C)noc2C)cc1	-5	4.9	1	10	-0.3	1.2%

Part of the list above in order of length of the SMILES, descending:
Compound	Six1-Eya2 inh	D2 ag	CtBP-E1A blk	TRPML1 inh	TRPML1 ag	PINK1 expr mod
COc1ccc(CNC(=O)C2(CC3CC(c4ccccc4)=NO3)CCN(C(=O)c3cccc(O)c3)CC2)cc1 (stereo not given)	-10	1.4	-8	63	1.4	-0.8%
COc1ccc(N(CC(=O)Nc2cc(OC)c(OC)cc2C(=O)O)S(=O)(=O)c2c(C)noc2C)cc1	-5	4.9	1	10	-0.3	1.2%
CCOC(=O)C1=C(COC(=O)COc2ccc(C#N)cc2)NC(=O)NC1C (stereo not given)	-4	-2.4	6	3	-0.2	0.1%
